Source: PubChem BioAssay
HPGD inh: HPGD (human) dehydrogenase inhibition. P15428. purified HPGD, NADH fluorescence kinetic, PGE2 substrate. Potency, µM, for inactives: top-dose activity change, negative = inhibition, usual class: inhibitors. 150,000 compounds, 4.3% hits. AID 894; active = well fitted inhibition curve with a large enough effect (not every such curve was filed as active); inconclusive = small, poorly fitted or top-dose-only effect, or another doubt; inactive = no such curve, though single readings can be large or run the other way;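 note: top concentration of the series not given in the record; plate controls included wells without enzyme; inactives centre near -10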
Target sequence (P15428 whole entry, looked up): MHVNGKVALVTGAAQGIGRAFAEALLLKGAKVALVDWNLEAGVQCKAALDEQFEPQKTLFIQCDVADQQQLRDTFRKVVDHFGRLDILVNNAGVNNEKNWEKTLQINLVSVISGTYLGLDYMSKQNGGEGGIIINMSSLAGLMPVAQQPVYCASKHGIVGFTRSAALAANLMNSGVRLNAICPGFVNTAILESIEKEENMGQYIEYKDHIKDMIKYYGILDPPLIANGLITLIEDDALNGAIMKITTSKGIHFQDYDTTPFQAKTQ
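20 nM HPGD preincubated 15 min at room temperature with compound in 50 mM Tris-HCl pH 8, 0.01% Tween 20. Started with 1 mM NAD+ and 30 uM prostaglandin E2; NADH fluorescence (360/450 nm) read 5 times over 30-s intervals, last minus first.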
An asterisk follows results filed as active; ? = inconclusive. % is set by controls: 0 for no effect and ±100 for the full control effect; potency is the fitted concentration of half-maximal effect.

SMILES	HPGD inh
Cc1nn(-c2ccc(F)cc2)c(Cl)c1/C=N/NC(=O)c1cccs1	-7.6%
COc1ccc(CCN2C(=O)CC(NNC(=O)c3ccccc3Br)C2=O)cc1OC (centres undefined)	-6.7%
CN(C)S(=O)(=O)N1CCN(S(=O)(=O)c2ccc3ccccc3c2)CC1	-15.9%
Cn1ccnc1SCC(=O)Nc1ccc(Oc2ccccc2)cc1	?
Fc1ccc(OCCCCCN2CCCC2)cc1	2.6%
C=C1c2cc(OC)ccc2NC(=O)N1CC	?
Cc1ccc(N(CN2C(=O)C3CC=CCC3C2=O)C(=O)c2ccco2)cc1Cl (centres undefined)	-14.7%
Nc1nc2c([nH]c(=O)n2C2OC(CO)C(O)C2O)c(=O)[nH]1 (centres undefined)	-6.7%
CCn1c(SCCC(=O)Nc2ccccc2)nnc1-c1ccc(OC)cc1	-7.7%
CC(=O)N1CCc2cc(S(=O)(=O)NCCC(=O)Nc3cccc(C)c3C)ccc21	-3.0%
CCOc1ccc2[nH]c(C)c(CN(C)C)c(=O)c2c1	?
CN1C(=O)C2(c3ccccc31)C1CCCC=C1C(C#N)=C(N)C2(C#N)C#N (centres undefined)	-17.3%
CN(C)/C=C(\C(=O)c1ccc(F)cc1F)c1nnnn1-c1ccccc1	1.0%
NC(=O)C1(N2CCCCC2)CCN(C(=O)CSc2nc3ccccc3[nH]2)CC1	-8.4%
Cc1ccc(N2C(=O)C3ON(c4ccccc4)C(c4ccncc4)C3C2=O)c(C)c1 (centres undefined)	-11.8%
O=C(NCC1CCCO1)c1ccc(CS(=O)(=O)c2ccc(Br)cc2)o1 (centres undefined)	-9.7%
CCC(=O)NC(=S)Nc1cccc(NC(=O)CC)c1	-7.9%
Cc1cccc(N/C=C/C(=C(C#N)C#N)N(C)C)c1	-18.9%
CCOc1cc(S(=O)(=O)N(CC)CC)c(OCC)cc1-n1cnnn1	?
O=C(OCCCCN1C(=O)c2ccccc2C1=O)c1ccc(S(=O)(=O)N2CCCC2)cc1	-28.1%
COC(=O)c1ccc(Sc2ccc(F)cc2)c(N)c1	?
CCOC(=O)c1c(C)[nH]c(C(C)=O)c1C	-14.7%
CCOCCSc1nnc2nc(C)cc(C)n12	-4.7%
CCOc1ccc(NC(=O)Nc2ccc3c(c2)nnn3C)cc1	-11.1%
Cc1cccc(NC(=O)CSc2nnc(C)n2Cc2ccccc2)c1	-10.3%
Going on with the list.
SMILES	HPGD inh
CCOC(=O)c1oc2ccccc2c1NC(=O)c1ccccc1OC	?
CC(C)(C)NC(=O)C1CC(=O)OC1(C)C (centres undefined)	3.3%
C=C(C)c1cccc(C(C)(C)NC(=O)N2CCCC2)c1	-8.6%
Cc1ccc(S(=O)(=O)N(CC(O)CN2CCCCC2)c2ccccc2)cc1 (centres undefined)	-5.0%
CCOc1ccc(CNC(=O)C2CCN(S(=O)(=O)CC)CC2)cc1OC	-3.4%
Cc1ccc(-c2n[nH]c(=S)n2/N=C/c2ccc(C)o2)cc1	12.6µM*
CCN(CC)C(=O)CSc1nnc(-c2ccco2)n1Cc1ccco1	-13.5%
C/C(Cn1cnc([N+](=O)[O-])n1)=N\NC(=O)c1cccnc1	-6.4%
CCCNC(=O)C1CCN(S(=O)(=O)c2ccc(-c3nn[nH]n3)cc2)CC1	-27.1%
CCc1cccc(OCC(=O)Nc2ccc(S(=O)(=O)Nc3onc(C)c3C)cc2)c1	-11.2%
CCn1c(SCC(=O)Nc2ccccc2)nc2c1c(=O)n(C)c(=O)n2C	-6.6%
OCCNc1ncnc2c1ncn2[C@@H]1O[C@@H](CO)[C@H](O)[C@@H]1O	-7.6%
CC(C)(C)Nc1nc(N2CCCC2)nc(N2CCCC2)n1	-6.5%
COc1ccc(C)cc1-n1nnnc1SCC(=O)c1cc(C)n(Cc2ccco2)c1C	-9.1%
COc1ccccc1NC(=O)CN1CCN(CC(=O)Nc2cc(NC(C)=O)ccc2OC)CC1	-1.4%
CC(=O)Nc1nonc1-c1nc2ccccc2n1Cc1ccccc1	?
O=S(=O)(/N=C(\c1ccc(Cl)cc1)N1CCOCC1)c1ccccc1	0.2%
COC(=O)c1ccsc1NC(=O)CSc1nnnn1Cc1ccccc1	-7.5%
Cc1ccc2c(c1)c(-c1ccccc1)nc1nncn12	-15.1%
CC(=O)Nc1ccc(N2C(=O)CSC2c2ccc(F)cc2)cc1 (centres undefined)	-5.0%
N#Cc1ccccc1NC(=O)c1cccc(COc2ccc(Cl)cc2Cl)c1	-14.4%
COc1ccc(-c2nn3c(-c4ccccc4)nnc3s2)cc1OC	-28.0%
CCn1c(-c2ccsc2)nc2c1c(=O)[nH]c(=O)n2Cc1ccccc1	-23.9%
Cc1cccc(OCC(=O)Nc2ccc(N3CCCC3)cc2)c1C	-0.2%
CC(C)c1ccc(C(=O)NCCCN2CCN(CCCNC(=O)c3ccc(C(C)C)cc3)CC2)cc1	-1.4%
Next part
SMILES	HPGD inh
O=C1CCN=C(Nc2ccc(F)cc2)N1Cc1ccccc1	-14.2%
CCOC(=O)CC(NS(=O)(=O)c1ccc(OC)c(OC)c1)c1cccc([N+](=O)[O-])c1 (centres undefined)	-4.0%
Brc1ccc(-c2nnc3n2-c2ccccc2CC3)cc1	-26.6%
CCCCCn1c(=O)c(C(=O)c2ccccc2)nc2ccccc21	-11.3%
CCCN(CCC)CCNC(=O)C1CC(=O)N(c2ccc(OC)cc2)C1c1ccc(OC)cc1 (centres undefined)	-1.5%
C=CCC(NC(C)c1ccccc1)c1ccco1 (centres undefined)	-22.6%
CC1=C(C)CC(C(=O)NCCc2ccccc2)C(C(=O)O)C1 (centres undefined)	-7.9%
CCOc1ccc(N2C(=O)CC(n3nc(C)cc3C)C2=O)cc1 (centres undefined)	-3.0%
O=C(CN1C(=O)c2cccc3cccc(c23)C1=O)N1CCN(Cc2ccc3c(c2)OCO3)CC1	-22.8%
CCN(C(=O)CCS(=O)(=O)c1ccc(Br)cc1)c1ccc2c(c1)OCO2	-10.1%
COc1ccc(-n2c(SCCC(=O)O)nnc2-c2ccncc2)cc1	-2.8%
CCNC(=O)COc1cccc(C(=O)NCc2ccccc2)c1	-10.2%
Cc1ccc(C(C(=O)NC2CCCC2)N(C(=O)Cc2cccs2)c2ccc3c(c2)OCCO3)cc1 (centres undefined)	-5.9%
CC(Sc1nnc(Cn2c(=O)sc3ccccc32)n1C)c1ccccc1 (centres undefined)	-8.8%
O=C(Nc1ccccc1C(=O)NCc1ccccc1)c1ccccc1Br	-12.3%
CCOc1cc(S(=O)(=O)N2CCN(c3ccc(F)cc3)CC2)c(OCC)cc1-n1cnnn1	?
CC1Cc2ccccc2N1C(=O)Cn1c(=O)oc2cc(S(=O)(=O)NC3CCCC3)ccc21 (centres undefined)	12.6µM*
O=C(Nc1cccc(-c2nc3ncccc3o2)c1)c1cc2ccccc2o1	?
O=C1c2ccccc2N2C(=O)c3ccccc3[C@H]2N1c1ccccc1	-0.9%
S=C1NC2(CCCCC2)Cc2ccccc21	-2.9%
CC(C)CC1=NN(C(=O)c2ccncc2)C(O)(C(F)(F)F)C1 (centres undefined)	-12.8%
CN(CC(=O)NC1CCCCCCC1)S(=O)(=O)c1cccc2cccnc12	1.0%
CC(C)(C)COS(=O)OCC(C)(C)C	-0.5%
Cc1ccc2nc(C(O)C(O)c3nc4ccc(C)cc4[nH]3)[nH]c2c1 (centres undefined)	?
O=C(CSc1ccccc1)Nc1cc(Cl)ccc1Oc1ccccc1	-11.7%
Next section
SMILES	HPGD inh
COc1ccc(CCN2C(=O)CC(NNC(=O)c3ccccc3Br)C2=O)cc1 (centres undefined)	-8.4%
CCn1c2ccccc2c2nc3cc(S(=O)(=O)N4CCOCC4)ccc3nc21	2µM*
CCOC(=O)CN(C(=O)CSc1nnc(Cc2ccccc2)n1-c1ccc(C)cc1)c1ccccc1	-2.0%
S=c1nc(-c2ccccc2)n(CCCN2CCOCC2)c2c1CCCC2	-12.1%
COC(=O)Nc1ccc(S(=O)(=O)Nc2ccccc2F)cc1	-0.3%
O=C(Cc1ccccc1)Nc1nnc(-c2cccc([N+](=O)[O-])c2)s1	-8.6%
COc1ccc(-c2nc(CSCC(=O)NCc3ccc4c(c3)OCO4)c(C)o2)cc1	-9.7%
Cc1ccc(C(C(=O)NC2CCCCC2)N(Cc2ccco2)C(=O)Cc2c[nH]c3ccccc23)o1 (centres undefined)	-15.4%
O=C(NNC(=S)NC1CCCCC1)c1sc2ccccc2c1Cl	-28.9%
CC(=O)CSc1nc(N)c(C#N)c(-c2cccs2)c1C#N	-19.3%
COc1ccc(CNC(=O)CN(Cc2ccc(Cl)cc2)S(=O)(=O)c2ccccc2)cc1	2.7%
Cc1ccc(N(CC(=O)Nc2cc(C)cc(C)c2)S(=O)(=O)c2cccc3nonc23)cc1	-5.5%
O=c1c(Cl)c(O)c2cccc3c4ccccc4n1c23	?
COc1ccc(C2=Nn3c(nnc3-c3ccco3)SC2)cc1	-26.2%
CCc1ccc(/C=C2\CN(CC)Cc3c2nc2ccccc2c3C(=O)O)cc1	-28.5%
Cc1cc(NC(=O)C2C3C(=O)N(Cc4ccc(Cl)cc4)C(C(=O)NC4CCCCC4)C34C=CC2(C)O4)no1 (centres undefined)	-5.3%
Cc1ccc(C(=O)Nc2ccc3c(c2)OCO3)o1	-13.2%
Cc1nc(N2CCN(C(c3ccccc3)c3ccccc3)CC2)nc2c1C(=O)CCC2	-10.4%
N#Cc1cc(NCC2CCCO2)c([N+](=O)[O-])cc1C#N (centres undefined)	-5.7%
COc1ccc(NC(=O)CCCn2c(=O)c3sccc3n(Cc3ccccc3)c2=O)cc1	-1.7%
CCCc1nc2ccccc2c(=O)n1N	-0.7%
CCOC(=O)C1=C(C)N=c2s/c(=C\c3ccc(OCC(=O)O)cc3)c(=O)n2C1c1ccc(OC(C)C)cc1 (centres undefined)	4.47µM*
CCN(CC)CCn1c2ccccc2c2cnc(N=CN(C)C)c(C#N)c21	?
O=C(c1ccco1)N1CCN(c2cc(=O)n(-c3ccc(Cl)cc3)c(=O)[nH]2)CC1	-5.0%
C=C1C(=O)C23C(O)C1CCC2[C@]12COC3(O)C(O)C1C(C)(C)CC[C@H]2O (some centres undefined)	?
Next compounds follow:
SMILES	HPGD inh
CN(C)CCNC(=S)Nc1ccc(Cl)cc1	-3.0%
CCCCC(=O)NNC(=S)NC(=O)c1cccc([N+](=O)[O-])c1	8.91µM*
CC(C)(C)c1cn(-c2ccc(Cl)cc2)c(=S)[nH]1	?
CC(C)N1C(=O)NC2(c3ccccc3)N(C)C(=O)N(C)C12c1ccccc1 (centres undefined)	1.2%
Cc1cccc2cc(C#N)c(NCCNC(=S)NCCCN3CCOCC3)nc12	?
COc1ccc(C(=O)NNC(=O)CSc2nnc(COc3ccccc3OC)n2C)cc1	-17.3%
Cn1c(C(=O)NCCCN2CCCCC2)cc2sccc21	-1.5%
COc1ccc(C)cc1NC(=O)C(OC(=O)c1cccc(S(=O)(=O)N(C)c2ccccc2)c1)c1ccccc1 (centres undefined)	-17.6%
Fc1ccc(CSc2nc3ncccc3[nH]2)cc1	-22.5%
COc1cc2c(cc1OC)C(CCN)=NCC2	-13.5%
Cn1c(=O)[nH]c(=O)c2c1nc(N1CCCCC1)n2CCCSc1nnnn1-c1ccccc1	-12.8%
Cc1ccccc1OCC(=O)Nc1ccc(N2CCN(S(C)(=O)=O)CC2)cc1	-6.9%
CCC(C)NCCOCCOc1ccc(C)cc1Br (centres undefined)	-8.0%
O=C(NCCCN1CCOCC1)c1csc2c1CCCC2	-13.0%
Cc1cc2nn(-c3cccc4ccccc34)nc2cc1NC(=O)c1cccs1	?
O=C(NCc1cccnc1)C1CC(c2ccc(F)cc2)=NO1 (centres undefined)	-6.6%
COc1ccc(OC)c(C2=NOC(C(=O)N3CCCc4ccccc43)C2)c1 (centres undefined)	-24.9%
COc1cccc(NC(=O)CCc2nc(-c3ccccc3F)no2)c1	-5.6%
O=S(=O)(N1CCCCC1)N1CCN(c2ccccc2F)CC1	0.6%
COc1ccc(CC(=O)Nc2ccc(-c3nc4cc(C)ccc4o3)c(O)c2)cc1OC	?
CCOC(=O)C(C)Oc1cccc2c(=O)n(CC(=O)NCc3ccco3)ccc12 (centres undefined)	?
O=C(NNc1c2ccccc2nc2ccccc12)c1cccc(O)c1	-19.0%
O=C(Oc1cccc2cccnc12)c1ccccc1	-11.2%
Cc1c(C(=O)NCCSCc2c(Cl)cccc2Cl)cccc1[N+](=O)[O-]	?
COc1ccc(N2C(=O)C3C(C2=O)C2C=CC3C23CC3)c(OC)c1 (centres undefined)	-8.8%
Cc1ccc(-n2c(C)nc3c(cnn3-c3ccc(F)cc3)c2=O)cc1C	-13.5%
CCOC(=O)c1c(NC(=O)Cn2nc(C(F)F)cc2C(F)F)sc(C)c1C	?
CN(C)c1ccc(N=Cc2nc(-c3ccccc3)oc2OC(=O)c2cccc(Br)c2)cc1	?

A portion of the library, so the mix of outcomes need not match the whole.
